High-throughput results deposited in PubChem BioAssay by National Center for Advancing Translational Sciences (NCATS).
TRPML1 inh = blocks the human TRPML1 channel. activity change, negative = inhibition, % (no concentration beside the values). Q9GZU1. 390,000 compounds, 0.02% hits. TRPML1-inducible cells, Ca2+ dye fluorescence, FDSS; active compounds read low; inhibition of EC80 agonist-evoked calcium signal; in the data active means activity change below about -50%; inconclusive means about -30% to -50%; inactive means above about -30%;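 further: stimulus is agonist 54-4 at its EC80 concentration; on the % scale 0 is the no-effect control and ±100 the full control effect; compound concentration not given in the record; the text of the record puts the active cut at -80%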
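TRPML1-DL cells, Tet-induced overnight (~16 h, 37 °C) at 1,500 cells/well, were loaded with Ca8 no-wash dye plus quencher for 45-90 min at room temperature. Compounds were pinned during FDSS kinetic reading; agonist 54-4 at EC80 (4 uM final) then added.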
Sfp PPTase inh = Sfp phosphopantetheinyl transferase inhibition | Q9F4F7 | Potency, µM, without a hit: max response, negative = inhibition, usual class: inhibitors | Biochemical Sfp PPTase activity, qHTS | 310,000 compounds, 3.5% hits; active means well fitted inhibition curve with a large enough effect; inconclusive means small, poorly fitted or top-dose-only effect, or another doubt; inactive means no such curve, though single readings can be large or run the other way;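 further: the enzyme is Sfp with the accession as filed and its product quenches rhodamine fluorescence; potency means the concentration at half of the fitted maximal effect; 0% = enzyme reaction without inhibitor and -100% = no enzyme wells; top concentration of the series not given in the record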
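After 15 min at room temperature with compound, 15 nM Sfp received 5 uM rhodamine-CoA plus 12.5 uM BHQ-2-ybbR (50 mM Hepes pH 7.6, 10 mM MgCl2). Rate came from the fluorescence difference over 30 min, ex 525/em 598 nm.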
Menin MLL FP FL = menin-MLL binding inhibition, fluorescein peptide | Fluorescence polarization, fluorescein-MLL peptide displacement from menin | FP activity change, % at 61.4 µM | 290,000 tested, under 10 active | AID 1766; inconclusive = falling polarisation curve, or a change in total fluorescence; inactive = total fluorescence flat and polarisation flat or rising; no compound was filed as active; the % refers to the polarisation; negative = inhibition;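 further: % of control where 0% means no effect; inhibitors lower the polarisation; unlabelled MLL peptide was the positive control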
TRPV1 potentiator = potentiators of human vanilloid receptor 1 (TRPV1). potentiation, % at 8.33 µM. TRPV1-expressing cells, Fluo-8 calcium influx, capsaicin EC20 potentiation; host cell line not named in the record; control for the full effect not named in the record. 320,000 compounds, 0.02% hits; active means potentiation above 80%; inconclusive means 30% to 80%; inactive means below 30%; further: 0% is about no effect
Target sequence (Q8NER1 whole entry, looked up): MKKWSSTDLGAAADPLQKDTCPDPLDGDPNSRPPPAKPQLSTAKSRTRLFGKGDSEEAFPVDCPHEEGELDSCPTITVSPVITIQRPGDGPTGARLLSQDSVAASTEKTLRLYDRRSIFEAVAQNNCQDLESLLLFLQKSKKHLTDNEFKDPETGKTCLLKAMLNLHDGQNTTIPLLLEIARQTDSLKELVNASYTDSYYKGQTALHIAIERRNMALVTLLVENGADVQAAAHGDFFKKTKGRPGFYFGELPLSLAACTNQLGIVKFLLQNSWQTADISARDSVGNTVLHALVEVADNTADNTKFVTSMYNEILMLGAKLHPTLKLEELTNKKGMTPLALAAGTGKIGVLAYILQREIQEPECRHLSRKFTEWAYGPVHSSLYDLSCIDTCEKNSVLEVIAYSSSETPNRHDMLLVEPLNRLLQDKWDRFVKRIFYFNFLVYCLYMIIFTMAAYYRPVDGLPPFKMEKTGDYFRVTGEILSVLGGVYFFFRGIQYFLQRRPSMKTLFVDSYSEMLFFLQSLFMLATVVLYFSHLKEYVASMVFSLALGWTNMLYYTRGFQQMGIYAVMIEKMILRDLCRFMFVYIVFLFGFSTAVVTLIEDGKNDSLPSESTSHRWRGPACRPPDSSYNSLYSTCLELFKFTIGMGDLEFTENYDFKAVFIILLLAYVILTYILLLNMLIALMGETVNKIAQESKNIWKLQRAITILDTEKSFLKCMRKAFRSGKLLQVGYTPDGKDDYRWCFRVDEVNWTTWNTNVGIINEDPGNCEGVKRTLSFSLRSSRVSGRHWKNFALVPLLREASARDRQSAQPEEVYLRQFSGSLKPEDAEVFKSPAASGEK
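Fluo-8 calcium influx in TRPV1-expressing cells, kinetic read (ex 480/em 520 nm). Compound added and read 3 min for agonist activity, followed by capsaicin at EC20 final and 2 min further read for enhancement.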
ClpP mod = qHTS Assay for Activators of ClpP; ATP-dependent Clp protease proteolytic subunit (Bacillus subtilis (strain 168)), P80244; 340,000 compounds, 1.9% hits; Potency, µM (series often up to 57.5 µM), for the others: at the top dose activity change, negative = active; purified B. subtilis ClpP, FRET peptide cleavage, 20 min; active = well fitted falling curve with a large enough effect; inconclusive = small, poorly fitted or top-dose-only effect; inactive = no such curve, though single readings can be large or run the other way; further: potency means the concentration at half of the fitted maximal effect; the source files actives as falling curves though it sought activators and does not explain the sign; nearly all actives have a fitted effect of over 65% in size; many hits overshoot -100%
Target sequence (P80244 whole entry, looked up): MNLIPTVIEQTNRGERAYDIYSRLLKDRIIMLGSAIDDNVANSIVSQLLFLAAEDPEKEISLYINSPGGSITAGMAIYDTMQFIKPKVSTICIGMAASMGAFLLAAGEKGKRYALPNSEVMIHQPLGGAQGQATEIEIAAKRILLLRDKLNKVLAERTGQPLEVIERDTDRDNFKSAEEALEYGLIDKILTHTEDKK
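ClpP 10 microg/mL final, pH 8 Tris/KCl buffer with BSA, glycerol, Tween-20; compound pinned in; FRET-FV substrate; RT 20 min; Ex320/Em430; ΔFRET vs ADEP 5.8 microM, DMSO, no enzyme.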
gsp ag = activates gsp, the McCune-Albright syndrome mutation | gsp mutant cells, cAMP HTRF, 30 min; control for the full effect not named in the record | 340,000 compounds, 0.13% hits | Potency, µM (series often up to 76.9 µM), without a hit: at the highest dose activation (cAMP increase), hits mostly activators | AID 624287; active = well fitted activation curve with a large enough effect; inconclusive = small, poorly fitted or top-dose-only effect, or another doubt; inactive = no such curve, though single readings can be large or run the other way; cell line not stated here;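 further: phosphodiesterase inhibitor Ro 20-1724 added with compounds to block cAMP breakdown; potency means the concentration at half of the fitted maximal effect; nearly all actives have a fitted effect of over 60% in size; about a fifth of the inactives were tested at one dose only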
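Cells stably selected in G418 were plated at 2000/well, grown 16-24 hr, then given compounds in DMSO with the PDE inhibitor […] (300 uM solution added) for 30 min at 37C; cAMP was read by HTRF.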
gsp antag = antagonizes gsp, the McCune-Albright syndrome mutation; Potency, µM (titrated, usually from 76.9 µM), without a hit: at the top dose activity change, negative = inhibition, most hits filed as inhibitors; 340,000 compounds, 0.4% hits; gsp-mutant cells, cAMP HTRF, 30 min; control for the full effect not named in the record; active = falling curve of any shape with a large fitted effect; inconclusive = falling curve, mostly with a smaller effect; inactive = flat or rising curve; cell line not stated here;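 further: intracellular cAMP measured with PDE inhibitor Ro 20-1724 present during compound exposure; potency means the concentration at half of the fitted maximal effect; on the % scale 0 is the no-effect control and ±100 the full control effect; nearly all actives have a fitted effect of over 65% in size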
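G418-selected cells were plated in DMEM/10% FBS for 16-24 h at 37C, then treated with compounds plus the PDE inhibitor […] (300 uM solution added) for 30 min at 37C. Intracellular cAMP was measured by HTRF after 30 min lysis at room temperature.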
* = called active by the depositor; ? = inconclusive; · = no result given; [ ] = another dose, or the depositor's remark.

SMILES | TRPML1 inh | Sfp PPTase inh | Menin MLL FP FL | TRPV1 potentiator | ClpP mod | gsp ag | gsp antag
COc1ccc(N2C(=O)C3C(c4ccc(OC)cc4O)NC(Cc4ccccc4)(C(=O)O)C3C2=O)cc1 (stereo not given) | 7 | -3% | 5.8 | 6 | · | -15% | 2%
CC(C)NC(=O)NC(=O)CSc1nnc(-c2ccccc2F)n1N | -6 | 10% | -2.5 | 1 | 1.8% | -4% | 14%
Cc1ccc(S(=O)(=O)N2C(=O)CCC2C(=O)Nn2cnnc2)cc1 (stereo not given) | -9 | -13% | -2.3 | -1 | 1.0% | 7% | 16%
CCCN1CCN(S(=O)(=O)c2ccc3c(c2)NC(=O)C(C)C(=O)N3)CC1 (stereo not given) | -6 | 1% | -1.4 | -17 | 1.7% | 12% | 11%
COc1ccc(S(=O)(=O)Nc2ccc(C)c(S(=O)(=O)N3CCOCC3)c2)cc1[N+](=O)[O-] | -4 | · | · | 7 | -1.3% | ? | -5%
O=c1oc(-c2cccs2)nc2sc3c(c12)CCC3 | -6 | 24% | 2.5 | 8 | -0.6% | 2% | 1%
CCC(O)c1nc2ccccc2n1CCc1ccccc1 (stereo not given) | -4 | 9% | 3.8 | -29 | · | 3%[15.4 µM] | -12%
CCNS(=O)(=O)c1ccc(CCC(=O)NCc2ccncc2)cc1 | 7 | 2% | 0.2 | -2 | -0.9% | 3%[15.4 µM] | -10%
O=C(c1ccc(-c2ccc([N+](=O)[O-])cc2)o1)N1CCCC(C(F)(F)F)C1 (stereo not given) | 68 | · | · | 8 | 0.3% | 6%[15.4 µM] | -15%
COc1ccc(CNC(=O)C[C@@H]2C[C@H]3c4cc(NC(=O)NC5CCCC5)ccc4O[C@H]3[C@H](CO)O2)cc1 | -18 | · | · | · | 0.6% | -21% | ·
CN(CCO)c1cc(NCCCN2CCC(Cc3ccccc3)CC2)c2nonc2c1[N+](=O)[O-] | -3 | 15% | -9.1 | -20 | -16% | 2%[15.4 µM] | -8%
COc1ccc(NC(=O)C2CCC(CNC(=O)[C@@H]3Cc4ccccc4CN3)CC2)cc1 (stereo not given in full) | 30 | 8% | -11 | -3 | 0.3% | 44% | 5%
COc1cc([N+](=O)[O-])cc(/C=N/NC(=O)Cn2nc(C)cc2C)c1O | -2 | -7% | -0.3 | 13 | 0.7% | -24% | -5%
Cc1ccc(C)c2sc(NC(=O)c3ccc(N4CCCCC4)c([N+](=O)[O-])c3)nc12 | 3 | 9% | 2.4 | 0 | 0.6% | -3% | 6%
Cc1cccc(NC(=O)c2c(O)c3ccccc3n(C)c2=O)c1 | 5 | 14% | -4.3 | 0 | -2.9% | 14% | 5%
CCn1c(C(C#N)/C(=N\S(=O)(=O)c2cccs2)c2ccccc2)nc2ccccc21 (stereo not given) | 10 | 2% | 1.1 | -11 | -3.0% | 0% | -9%
O=C(COC(=O)CC1CC2CCC1C2)NCc1ccc(Cl)cc1 (stereo not given) | 5 | · | · | · | · | -1% | 3%
COC(=O)[C@H](Cc1ccccc1)N1C/C=C\COc2c(Cl)cc(Cl)cc2S1(=O)=O | 22 | · | · | · | -1.2% | · | -8%
O=S(=O)(c1ccc(Cl)cc1)N1CCN(C(=S)NCC2CCCO2)CC1 (stereo not given) | -4 | 5% | 0.1 | 3 | -14% | -96%[inhibitor] | -8%
CN(C)CCn1cnc2c(c1=N)C(c1ccccc1)c1ccc3ccccc3c1O2 (stereo not given) | · | -10% | -7.0 | -3 | 1.3% | 13% | 13%
COCCn1c(SCC(=O)NC(=O)NC(C)(C)C)nc2ccccc21 | -2 | 14% | -2.2 | 5 | 1.3% | -37%[inhibitor] | -8%
CC1CN(CC(O)COC(c2ccccc2)c2ccccc2)CC(C)O1 (stereo not given) | 19 | ? | 0.9 | 25 | -1.6% | -3% | 0%
CN1CC=C2C(C#N)=C(N)C(C#N)(C#N)C(CCc3ccccc3)C2C1 (stereo not given) | -7 | 8% | ? | 7 | 28µM* | 14% | -12%
O=C(CNC(=O)c1ccccn1)N=Nc1c(O)[nH]c2ccccc12 | -11 | 18% | 2.1 | 14 | · | 11% | -6%
CC(=O)Oc1ccc(/C=N/NS(=O)(=O)c2ccccc2)cc1 | 2 | -4% | 1.8 | 18 | · | -35%[inhibitor] | 1%
Other structures follow:
SMILES | TRPML1 inh | Sfp PPTase inh | Menin MLL FP FL | TRPV1 potentiator | ClpP mod | gsp ag | gsp antag
O=c1[nH]c(CSc2nnnn2-c2ccccc2)nc2ccccc12 | -13 | 10% | 0.8 | -4 | · | -19%[15.4 µM] | -4%
Cc1noc(C)c1NC(=O)Nc1ccc2c(c1)C(=O)N([C@H](C)CO)C[C@H](C)[C@H](CN(C)C)O2 | 0 | · | · | · | -23% | 10% | 6%
O=C(O)c1ccc2c(c1)C(c1ccccc1)OC2=O (stereo not given) | 0 | 5% | 0.9 | -7 | 0.4% | -16% | -4%
O=C(CSc1cn[nH]n1)Nc1cccc(C(=O)O)c1 | -8 | 35µM* | -1.2 | -5 | · | 8%[15.4 µM] | 11%
CC1(C)CC(=O)C=C(NCc2cccnc2)C1 | -8 | 9% | -0.7 | ? | -0.5% | 9% | 5%
O=C(CSc1nnc(NC(=O)c2ccc(F)cc2F)s1)NC1CC1 | -4 | 9% | 3.4 | -6 | · | -26%[15.4 µM] | -8%
Cc1nnsc1S(=O)(=O)Cc1ccccc1Cl | 6 | 18% | -0.4 | 8 | 0.5% | -35%[inhibitor] | 3%
O=C(OCC(=O)N1CCCCCC1)c1ccc(Cl)c(S(=O)(=O)N2CCCC2)c1 | -17 | -10% | 0.3 | -1 | · | -7%[15.4 µM] | -21%
CN(CC(=O)NCc1ccco1)CC(=O)Nc1c(Cl)cccc1Cl | 17 | · | · | -4 | -2.6% | ? | 6%
Cc1cccc(C(CC(=O)NCc2ccco2)c2ccccc2)c1O (stereo not given) | -18 | 3% | -1.9 | -3 | 0.7% | -56%[inhibitor] | -2%
Cc1oc2c(C)c3oc(=O)c(CC(=O)N[C@@H](CC(C)C)C(=O)N[C@@H](Cc4ccccc4)C(=O)O)c(C)c3cc2c1C | · | -19% | 1.1 | -8 | ? | · | 3%
C[C@@H]1CN([C@@H](C)CO)C(=O)CCCn2nncc2CO[C@@H]1CN(C)C(=O)Nc1cccc2ccccc12 | -18 | · | · | · | 3.7% | -8% | ·
COC(=O)c1c(NC(=O)c2nc3ncccn3n2)sc(C(=O)N(C)C)c1C | · | -7% | -0.6 | -11 | · | · | ·
COCCCNC(=O)CSC1=Nc2ccccc2C2=NC(CC(=O)NCc3ccccc3)C(=O)N12 (stereo not given) | -15 | -26% | 2.8 | ? | 28µM* | 21% | 12%
c1ccc(-c2c[nH]c(-c3ccccc3)c2)cc1 | -1 | · | · | · | 20µM* | 6% | -13%
COc1ccc(CCNC(=O)CC2COc3ccccc3O2)cc1OC (stereo not given) | 13 | 0% | 0.8 | -16 | -0.5% | -4% | -6%
CC(C)(C)NC(=O)N1CCN(S(=O)(=O)c2ccc3c(c2)CCC3)CC1 | -15 | · | · | -25 | 1.0% | -21% | 7%
COCCNC(=O)Cn1nc(C)c2ccccc2c1=O | -5 | 2% | 2.6 | 6 | -2.5% | -15% | 7%
CCN(CC)C(=O)c1sc2nc(-c3ccc(OC)cc3)cn2c1C | 24 | -3% | 3.0 | 1 | -2.6% | -95%[inhibitor] | 1%
O=S(=O)(Nc1ccc(S(=O)(=O)N2CCCCCC2)cc1)c1cccs1 | -12 | 10% | 2.3 | 11 | 0.8% | 9% | -17%
CC1CCCCC12NC(=O)N(CC(=O)OCc1c(F)cccc1Cl)C2=O (stereo not given) | -3 | · | · | · | -0.8% | 10%[15.4 µM] | -1%
Nc1nnn(CC(=O)N/N=C/c2ccccc2Cl)n1 | -1 | 12% | -6.2 | 12 | · | -2%[15.4 µM] | 7%
Cc1nn(-c2ccccc2)c(Cl)c1C(=O)NNC(=O)c1ccccc1O | 15 | · | · | 4 | -10% | -9% | -17%
CCOC(=O)c1c(C)[nH]c2cc(Br)c(OC)cc12 | 6 | -8% | -1.7 | 10 | 2.3% | -46%[inhibitor] | -7%
CCSc1nnc(-c2cccnc2)n1-c1ccc(Cl)c(C)c1 | -10 | 4% | 5.9 | -5 | -1.3% | ? | -11%
Further compounds:
SMILES | TRPML1 inh | Sfp PPTase inh | Menin MLL FP FL | TRPV1 potentiator | ClpP mod | gsp ag | gsp antag
Cc1nc(NC(=O)c2c(-c3ccccc3Cl)noc2C)sc1C | 9 | 7% | · | -2 | -0.1% | ? | 0%
O=C(N/N=C/c1ccco1)c1cc(-c2cccc(Br)c2)nc2ccccc12 | 25 | ? | -0.2 | 5 | 13% | 3% | 3%
Cc1ccc(C(c2nnnn2C(C)(C)C)N2CCC(C)CC2)cc1 (stereo not given) | 66 | -7% | 6.8 | 2 | 0.3% | ? | -2%
Cc1ccc(NC(=O)COC(=O)c2ccco2)cc1S(=O)(=O)N1CCOCC1 | 4 | · | · | · | -2.5% | -10% | 7%
Cc1cc(O)c(NC(=O)c2cccc([N+](=O)[O-])c2)cc1C | -11 | 6% | 5.5 | -16 | · | -7%[15.4 µM] | 8%
COCCNC(=O)c1csc(Nc2cccc3ccccc23)n1 | 6 | -8% | 3.1 | ? | -10% | -18% | -6%
CCC(=O)Oc1ccc2c(c1)OC1(OC(C)=O)OC(C)CC1=C2C (stereo not given) | · | 18% | 1.1 | · | 3.8% | ? | 0%
NC(=S)Cc1ccccc1Cl | 6 | 1% | -0.6 | 7 | · | 27%[15.4 µM] | 9%
O=C(CCC(=O)N1CCOCC1)NCCc1ccccc1 | 20 | · | · | -8 | 1.5% | -9% | 13%
CS(=O)(=O)N(CC(=O)NCc1ccncc1)C1CCCCC1 | 16 | 15% | -2.9 | -1 | · | 11%[15.4 µM] | -3%
Cn1c(SCC(=O)Nc2ccc(N3CCOCC3)cc2)nnc1C(F)(F)F | 2 | · | · | 1 | -0.8% | 1% | -1%
